# Screening results: PubChem, National Center for Advancing Translational Sciences (NCATS)
# hNpr1 antagonist = human Npr1 receptor antagonism. HEK293 hNpr1 GloSensor cGMP, ANP-stimulated luminescence. Potency, µM (titrated, usually from 46.3 µM), inactives show at the top dose activity change, negative = inhibition, hits mostly inhibitors. 1.6% of 76,000 active; active = well fitted inhibition curve with a large enough effect; inconclusive = small, poorly fitted or top-dose-only effect; inactive = no such curve, though single readings can be large or run the other way;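 note: nearly all actives have a fitted effect of over 60% in size; nearly all hits also lower the signal before the agonist is added; a reference antagonist and vehicle were the controls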
# Target sequence (P16066 whole entry, looked up): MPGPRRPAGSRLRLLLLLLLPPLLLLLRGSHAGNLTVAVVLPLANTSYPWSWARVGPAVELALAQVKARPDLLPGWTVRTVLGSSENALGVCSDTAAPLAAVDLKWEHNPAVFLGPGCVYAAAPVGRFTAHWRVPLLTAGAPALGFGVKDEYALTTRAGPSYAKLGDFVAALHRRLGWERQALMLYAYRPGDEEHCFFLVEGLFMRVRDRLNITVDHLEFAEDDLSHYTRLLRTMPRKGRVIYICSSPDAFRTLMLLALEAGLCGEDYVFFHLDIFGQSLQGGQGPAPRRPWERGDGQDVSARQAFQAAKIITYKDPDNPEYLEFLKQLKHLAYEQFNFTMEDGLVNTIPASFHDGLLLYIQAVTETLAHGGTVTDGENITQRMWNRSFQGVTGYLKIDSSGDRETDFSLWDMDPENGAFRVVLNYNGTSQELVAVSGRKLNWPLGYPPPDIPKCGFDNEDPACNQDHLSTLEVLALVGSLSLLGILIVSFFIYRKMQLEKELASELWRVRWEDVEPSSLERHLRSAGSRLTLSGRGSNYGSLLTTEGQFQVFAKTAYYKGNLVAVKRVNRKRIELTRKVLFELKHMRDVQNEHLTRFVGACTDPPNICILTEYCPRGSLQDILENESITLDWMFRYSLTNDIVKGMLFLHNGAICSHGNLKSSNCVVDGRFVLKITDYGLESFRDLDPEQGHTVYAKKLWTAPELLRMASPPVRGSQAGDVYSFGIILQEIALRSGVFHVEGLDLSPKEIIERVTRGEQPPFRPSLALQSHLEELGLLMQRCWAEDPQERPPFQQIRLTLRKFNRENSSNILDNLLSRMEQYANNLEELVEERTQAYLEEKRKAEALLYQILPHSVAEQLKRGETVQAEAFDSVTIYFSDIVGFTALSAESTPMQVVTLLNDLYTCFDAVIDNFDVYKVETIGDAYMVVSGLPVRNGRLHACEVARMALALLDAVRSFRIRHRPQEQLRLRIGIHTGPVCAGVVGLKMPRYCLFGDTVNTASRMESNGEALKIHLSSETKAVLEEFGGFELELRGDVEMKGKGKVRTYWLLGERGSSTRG
#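 HEK293 cells stably expressing human Npr1 and cGMP GloSensor pGS-40F, loaded 2 h with 2% GloSensor reagent, given compound 30 min at room temperature. Luminescence read before and 20 min after 0.1 nM hNppA.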
# * = called active by the depositor; ? = inconclusive; [ ] = dose if it differs, or a comment. % is set by controls: 0 for no effect and ±100 for the full control effect; potency is the fitted concentration of half-maximal effect. A portion of the library, so the mix of outcomes need not match the whole.
hNpr1 antagonist,molecule
-2%,O=C(NCCc1ccccc1)C1CCN(C(=O)c2ncn3c2COC(c2ccc(F)cc2)C3)CC1 (stereo not drawn)
-6%,COc1cc(SC)ccc1C(=O)N[C@H]1CCN2C(=O)N(c3cccc(C(F)(F)F)c3)C(=O)[C@@H]2C1
0%,NCCN1C(=O)CC[C@H]2CN(C(=O)c3ccc(Cl)s3)CC[C@H]21
-4%,COc1ccc(C(=O)N2CCC3(CC2)NC(=O)N(c2ccc(F)cc2)N3)cc1
12%,Cc1ncoc1C(=O)N1CCOc2ccc(CCC(N)=O)cc2C1
1%,COc1ccc(C2Cn3cnc(C(=O)N4CCC(C(=O)NCc5ccncc5)CC4)c3CO2)cc1 (stereo not drawn)
1%,COCCN1CCCCCC(O)c2cc(C(=O)NCCCN(C)C)ccc21 (stereo not drawn)
6%,COC(=O)CNC(=O)N1CC(c2nc(CCOc3cccc(C)c3)no2)C1
3%[70.6 µM],CCNC(=O)N[C@H]1[C@H](O)[C@@H](N2CCN(C(C)=O)CC2)[C@@H]2OC[C@H]1O2
-1%,Cc1cccc(C(=O)N2CCC(N3CC4CC(C3)[C@H]3CCCC(=O)N3C4)CC2)c1 (stereo partly drawn)
-1%,CCn1ccc(C(=O)N2C[C@@H](CO)[C@H](c3ccccn3)C2)n1
6%[70.6 µM],Cc1onc(-c2cnn(C)c2NCc2ccc(C#N)cc2)c1C(=O)N1CCCC1
-12%,CC(C)N1C(=O)Cc2ccccc2C1C(=O)NCc1ccccc1 (stereo not drawn)
-4%[70.6 µM],O=C(c1nc2c(o1)CCN(Cc1cccc(F)c1)CC2)N1CCOCC1
3%,CO[C@H]1[C@H](NC(=O)c2cnc(C)cn2)c2ccccc2C12CCNCC2
2%[70.6 µM],Cc1ccc2c(c1)N1C(=O)OC[C@@H]1CCN(C(=O)c1ccno1)C2
-11%[70.6 µM],CN1Cc2nc(Nc3ccc(C(F)(F)F)cc3)ccc2OCC1=O
0%,Cc1nc(CN2CCN(C(=O)[C@H]3CC[C@@H](N)C3)CC2)cs1
-16%,CCOC(=O)CNC(=O)c1cc(-c2ccc(Cl)cc2)cn1C
9%,Cc1nsc(NC(=O)N2CCC(N)CC2)n1
?,Cc1ncsc1CN1CCCC(C(=O)NCc2ccccc2)CCNC(=O)CC1 (stereo not drawn)
0%,O=C(c1cc(-c2ccccc2)n[nH]1)N1CCC2(CC1)CC(OCC1CC1)CCO2 (stereo not drawn)
-3%,Cn1nc(C(=O)N2CCCC(CN3CCOCC3)CC2)c2ccccc21 (stereo not drawn)
-2%[70.6 µM],CNC(=O)CCn1ncc2cc(OCc3ccccc3-c3ccc(F)cc3F)ccc21
-13%[70.6 µM],O=C(c1ccccc1)N1CC[C@H](c2nnc(Cc3ccccc3)o2)C1
0%,CC(C)CN1C(=O)N(Cc2ccccn2)C(=O)C12CCN(Cc1ccc3c(c1)CCO3)CC2
-1%,CCOCCCNC(=O)c1c(C)noc1-c1ccc(OC)cc1
-6%,CCCNC(=O)N(C1CCOCC1)C1CCN(S(=O)(=O)c2ccccc2CC)CC1
2%,CCc1ccc(CN2CCCC(c3nnc(CN4CCCC4)n3C)C2)cc1 (stereo not drawn)
?,COc1ccc(C(=O)N[C@H]2CO[C@H]3[C@@H]2OC[C@@H]3n2nnnc2-c2ccc3c(c2)OCO3)cc1

# Gathered by group: the compounds so far with a CF3 group (2)
hNpr1 antagonist,molecule
-6%,COc1cc(SC)ccc1C(=O)N[C@H]1CCN2C(=O)N(c3cccc(C(F)(F)F)c3)C(=O)[C@@H]2C1
-11%[70.6 µM],CN1Cc2nc(Nc3ccc(C(F)(F)F)cc3)ccc2OCC1=O

# Some of the entries so far, field by field.
O=C(NCCc1ccccc1)C1CCN(C(=O)c2ncn3c2COC(c2ccc(F)cc2)C3)CC1 (stereo not drawn)
  hNpr1 antagonist = -2%

COc1cc(SC)ccc1C(=O)N[C@H]1CCN2C(=O)N(c3cccc(C(F)(F)F)c3)C(=O)[C@@H]2C1
  hNpr1 antagonist = -6%

NCCN1C(=O)CC[C@H]2CN(C(=O)c3ccc(Cl)s3)CC[C@H]21
  hNpr1 antagonist = 0%

COc1ccc(C(=O)N2CCC3(CC2)NC(=O)N(c2ccc(F)cc2)N3)cc1
  hNpr1 antagonist = -4%

# Entries listed so far that contain a Cl atom, in the order listed:
hNpr1 antagonist,molecule
0%,NCCN1C(=O)CC[C@H]2CN(C(=O)c3ccc(Cl)s3)CC[C@H]21
-16%,CCOC(=O)CNC(=O)c1cc(-c2ccc(Cl)cc2)cn1C

# Later entries
hNpr1 antagonist,molecule
0%,O=[S+]1([O-])NC2(CCN(CC3CCCCC3)C2)CNc2ccccc21 (stereo not drawn)
?,COc1ccc(-c2cc(N3CCN(C(=O)c4ccc(OC)cc4OC)CC3)n[nH]2)cc1
1%,Cn1cc([C@@H](NC(=O)CCn2nnc3ccccc32)C2CC(O)C2)cn1 (stereo partly drawn)
?,CN1C[C@@H](NS(=O)(=O)c2ccc(C#N)cc2)C[C@H]1c1nc(-c2ccc(Cl)cc2)no1
0%,Cc1ccc(C(=O)N(C)CC2CCOCC2)cc1F
16%,Cc1ccc(F)cc1S(=O)(=O)N1CCC(CC(=O)NCc2ccccc2)C1 (stereo not drawn)
0%,Cc1ccc2oc(C(=O)N(C)Cc3nc(-c4cccnc4)no3)c(C)c2c1
-1%,O=C(NCCc1ccco1)C1CC(=O)N(c2n[nH]c3cccc(F)c23)C1 (stereo not drawn)
?,O=C(NCCC1CCCCC1)c1c[nH]c2ncccc12
2%,Cn1cc([C@@H](NC(=O)c2nc3ccccc3[nH]c2=O)C2CC(O)C2)cn1 (stereo partly drawn)
8%,CC(C)NC(=O)N(C1CCOCC1)C1CN(C(=O)c2ccnn2C)C1
-3%,COCCC1(NC(=O)c2ccco2)CCN(S(C)(=O)=O)CC1
1%,Cc1ccc(C(=O)N2C[C@H]3CN(C4CCOCC4)C[C@@]3(C(=O)O)C2)cc1
-5%,COCCN(C)C[C@@H]1CN(C(=O)c2ccc(Cl)cc2)C[C@@H]1CO
-3%[70.6 µM],COC[C@@H]1OC[C@@]2(C)C3CC[C@@H](O)[C@@H](CC(=O)N4CCCCC4)[C@]3(C)CC[C@H]2O1 (stereo partly drawn)
-19%[70.6 µM],O=C1NC2(CCN(Cc3cncs3)CC2)Oc2ccccc21
-2%[70.6 µM],COc1cccc(Nc2ccc3c(n2)C(C)(C(=O)NC2CCN(C)CC2)CN(C)C3)c1 (stereo not drawn)
-27%[70.6 µM],O=C1Cc2c(-c3ccccc3OCc3ccccc3)n[nH]c2CN1CC1CCOCC1
4%,Cc1ccc(-c2nnc(C3CN(C(=O)Cc4cccc(F)c4)CC34CCOCC4)o2)cc1 (stereo not drawn)
2%,CC(C)(CC(=O)O)CC(=O)N1CCN2C(=O)c3cc(-c4ccccc4F)ccc3NC(=O)[C@@H]2C1
2%,c1ccc(OCCCCN2CCOCC2)c(CNC2CCNC2)c1 (stereo not drawn)
1%,CCc1ccccc1S(=O)(=O)N1CCC2(CC1)CN(C(C)=O)CC2COC (stereo not drawn)
-15%,CC1Oc2ccc(NC(=O)c3ccccc3F)cc2CN(C2CCCc3ccccc32)C1=O (stereo not drawn)
8%,CCCCS(=O)(=O)N1C[C@@H](C(N)=O)[C@H](c2n[nH]c(C)n2)C1
-4%,O=S(=O)(c1cccnc1)N1CCC(N2CC(OCC3CC3)C23CCOCC3)CC1 (stereo not drawn)
-1%,COc1cccc(C(=O)NCc2cccnc2Oc2ccc(C)nc2)c1C
1%,CCc1nc(CCNC(=O)CC2COCCN2S(=O)(=O)C2CC2)no1 (stereo not drawn)
-12%,Cc1ccc(NC(=O)Cn2c(-c3ccc(F)cc3)nc(C)cc2=O)c(Cl)c1
6%,CN(C)C[C@@H]1CN(c2ccncn2)C[C@H]1NC(=O)c1ccc(F)cc1Cl
9%,O=C(c1cc(F)ccc1F)N1CCCC(Cc2nc(C3CCOCC3)no2)C1 (stereo not drawn)
0%,COCCN1CC(CO)C2(CCN(Cc3ccc(C#N)cc3)CC2)C1 (stereo not drawn)
2%,COc1nccnc1NC1CCN(C(=O)COc2ccccc2C)CC1
1%,COc1ccccc1CC(=O)Nc1cnc(-c2cccnc2)nc1
1%,O=C(c1ccc2c(c1)OCO2)N1CCC2(CC1)NC(=O)N(c1cccc(F)c1)N2
3%[70.6 µM],CC(C)NC(=O)C[C@@H]1O[C@H](CNCc2ccc(F)cc2)[C@@H](O)[C@H]1O
18µM*,O=C(Nc1ccccc1)c1nc2c(o1)CCN(Cc1cccnc1)CC2
8%,Cc1ccc(C(=O)N2CCC3(CC2)NC(=O)N(c2ccccc2)N3)cc1C
7%,COCCO[C@H]1C(=O)N(C2CCN(Cc3c[nH]c4ccccc34)CC2)[C@H]1c1ccncc1
4%[70.6 µM],OCCc1cc(CC2(NC3CCOCC3)COC2)no1
2%[70.6 µM],CC(C)NC(=O)C[C@@H]1C[C@H]2O[C@H](CNCc3ccccc3Cl)[C@@H](O)[C@H]2O1
-1%[70.6 µM],COC(=O)c1ccc2c(c1)nc1n2[C@@H](CNC(=O)c2ccc(F)cc2)COC1
-5%[70.6 µM],O=C1Cc2c(-c3ccccc3Oc3ccccc3)n[nH]c2CN1Cc1ccccn1
-13%,C=CCC1(C(=O)O)CCCN(C(=O)c2cn(CCN)nn2)C1 (stereo not drawn)
-3%,COc1cc(CNC(=O)C2Cn3cccc3C(=O)N2)cc(OC)c1 (stereo not drawn)
-11%,Cc1cccc(CC(=O)N2CC(C(=O)NC3CCCCC3)C3(CCOCC3)C2)c1 (stereo not drawn)
-2%,O=C([C@H]1C[C@H](Oc2ccccc2)CN1C(=O)C1CCC1)N1CCOCC1
4%,CS(=O)(=O)N(C1CCOCC1)C1CN(C(=O)c2cncc(Br)c2)C1
0%,CCCNC(=O)c1c(OCC2CC2)cc(=O)n2c1CCCCC2
-26%,COc1ccccc1NC(=O)Cn1c(N(C)Cc2ccccc2)nc(C)cc1=O
-7%,COc1ccc(-c2nc3ccc(-c4ccc5c(c4)OCO5)cc3o2)c(OC)c1OC
-13%[70.6 µM],COc1cccc(Nc2ccc3c(n2)C(C)(C(=O)NCC2CC2)CN(C)C3)c1 (stereo not drawn)
1%,Cc1cnn(CCC(=O)N2CCC(C3CCN(S(C)(=O)=O)CC3)C2)c1 (stereo not drawn)
-14%,COC[C@@H]1CN(C(=O)c2ccc(=O)[nH]c2)C[C@H]1c1ccncc1
5%,Cc1ncoc1C(=O)N1CCCC(c2nnnn2C)C1 (stereo not drawn)
-4%,COc1cc(-c2noc(-c3nc(-c4ccc5c(c4)OCO5)no3)n2)cc(OC)c1OC
5%,CCN(CC)Cc1cnc2c(C(=O)N3CCCN4CCC[C@H]4C3)cnn2c1
6%,CC(=O)c1[nH]c(C)c(C(=O)N[C@H]2[C@H]3CCO[C@H]3[C@@H]2N2CCCC2)c1C
-15%,O=c1c2c3c(nn2ccn1Cc1ccc(Cl)cc1)CCCC3
4%,Cn1ccnc1CN1CCC2(CC1)CC(c1ccccc1)C(=O)N(C1CC1)C2 (stereo not drawn)
-21%,COc1ccccc1Oc1c(CCC(=O)NCC2CCCO2)c(C)nn1-c1ccc(F)cc1 (stereo not drawn)

# Three compounds already listed, ordered by the number in hNpr1 antagonist, rising.
hNpr1 antagonist,molecule
-15%,O=c1c2c3c(nn2ccn1Cc1ccc(Cl)cc1)CCCC3
-3%,COc1cc(CNC(=O)C2Cn3cccc3C(=O)N2)cc(OC)c1 (stereo not drawn)
5%,CCN(CC)Cc1cnc2c(C(=O)N3CCCN4CCC[C@H]4C3)cnn2c1

# (more compounds)
hNpr1 antagonist,molecule
2%[70.6 µM],CC(C)NC(=O)C[C@@H]1C[C@H]2O[C@H](CNCc3cnccc3Cl)[C@@H](O)[C@H]2O1
2%,COCCOc1ccnc(-c2noc([C@@H]3CCCN3Cc3cccc(OC(F)(F)F)c3)n2)c1
2%[70.6 µM],CC(C)NC(=O)CC[C@@H]1CNC(=O)[C@@H]2C[C@H](NCc3ccc(N(C)C)cc3)CN12
1%[70.6 µM],COCCOCC1(CNC(=O)C2CC2)C[C@@H](O)[C@@H](O)C1 (stereo partly drawn)
-10%[70.6 µM],COc1ccc(OCC2(C)COc3ccc(C(=O)NCC4CCOCC4)cc3N2)cc1 (stereo not drawn)
-1%,O=C(CCc1nnn2c1CN(C(=O)NCc1ccc(F)cc1)CC2)N1CCOCC1
5%,Cc1cnc(CN2CCC3(CCC(=O)N(CCCO)C3)CC2)[nH]1
1%,CCCOc1ccc(CN2CCC3(CC2)CC(O)CCO3)cc1OC (stereo not drawn)
6%,CCOc1ccccc1C(=O)NC(C)C(=O)N1CCN(c2ccccn2)CC1 (stereo not drawn)
-2%[70.6 µM],Oc1ccccc1-c1cc(C2=CCOCC2)c2cncn2c1
9%,O=C(Cc1ccccc1)N1CCC2(CC1)CN(c1ncccn1)CC2CO (stereo not drawn)
6%,Cc1cnc(C2CCOCC2)n1CC1CCN(C(=O)c2cccnc2)CC1
12%[70.6 µM],O=C(NCCN1CCOCC1)c1c[nH]c2ncccc12
2%,COCc1noc([C@@H]2CN(Cc3cn(C)c4ccc(OC)cc34)C[C@H]2C(N)=O)n1
3%[70.6 µM],COc1cccc(NC(=O)N[C@H]2C[C@@H](c3nc(C)no3)N(C)C2)c1
15%,CC(=O)N1C[C@H](NC(=O)c2cccc(C)c2Cl)[C@@H](C(C)C)C1
3%,COc1cccc(CNC(=O)CN2C(=O)NC(c3ccccc3Cl)C3=C2COC3=O)c1 (stereo not drawn)
-4%,CCOc1ccc2c(n1)CCN(C(=O)Cc1ccccc1)C2
